rRNA inh HTS = inhibitors of bacterial rRNA selective over humanized ribosomes; E. coli WT GFP vs humanized-ribosome RFP mutants, fluorescence, 24 h; active compounds read low; DMSO median 0, no signal -100; GFP signal change (wild-type ribosome), % (no concentration beside the values); hit rate 1.6% among 350,000; AID 720706;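 active = significant combined selectivity score with lowered wild-type GFP, culture density cut under 30%, mutant RFP and density less affected; inactive = any of these conditions unmet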; also: one replicate is shown; some compounds called inactive have numbers as strong as hits
rRNA inh HTS OD600 = also measured in rRNA inh HTS; calls as there; OD600 change, %; measured here: OD600 growth;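 optical density of the mix in the first replicate; 0 = DMSO median and -100 = no signal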
rRNA inh HTS RFP = further read-out of rRNA inh HTS, marked with its call; RFP signal change, %; measured here: RFP humanized mutant strains;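 first replicate; 0 = DMSO median and -100 = no signal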
The depositor's hits bear a star; & = joins results of further samples. The list is partial, so the mix of outcomes need not match the whole.

How did OC[C@H]1[C@@H](c2ccc(-c3ccncc3)cc2)[C@@H]2CN(Cc3ccccn3)CCCCN12 do in these assays?
rRNA inh HTS: 4.9; rRNA inh HTS OD600: 3.7; rRNA inh HTS RFP: -1.6

Results for CCCC#Cc1ccc2c(c1)[C@@H]1[C@@H](CCN1S(=O)(=O)c1cn(C)cn1)[C@@H](CO)N2 ?
rRNA inh HTS: -4.6; rRNA inh HTS OD600: -4.9; rRNA inh HTS RFP: 3.3

Results for CC(=O)N1C[C@H]2CON(C)[C@H]2C[C@H]1c1ccccc1-c1ccccc1 ?
rRNA inh HTS: 29.3; rRNA inh HTS OD600: 21.1; rRNA inh HTS RFP: 0.9

How did CO[C@H]1CN(C)C(=O)c2cc(NC(=O)Nc3cc(Cl)cc(Cl)c3)ccc2OC[C@H](C)NC[C@H]1C do in these assays?
rRNA inh HTS: -8.8&-58.6; rRNA inh HTS OD600: -29.1&-83.0; rRNA inh HTS RFP: 19.0&-14.8

Results for CCCCN1C(=O)C(CC(=O)NCCCN(C)C)CC(C(=O)N2CCOCC2)=C1C (stereo unspecified) ?
rRNA inh HTS: 2.3; rRNA inh HTS OD600: 6.2; rRNA inh HTS RFP: -1.3

How did O=S(=O)(c1ccccc1)N1C[C@@H]2N[C@H](C1)C2c1ccc(/C=C/c2ccccc2)cc1 (stereo partly specified) do in these assays?
rRNA inh HTS: -56.5&-6.4; rRNA inh HTS OD600: -78.5&6.2; rRNA inh HTS RFP: -9.7&0.3

What do the screens show for `C[C@H]1CN([C@@H](C)CO)C(=O)c2c(c3ccccc3n2C)-c2ccccc2CO[C@@H]1CN(C)C`?
rRNA inh HTS: 0.0; rRNA inh HTS OD600: 1.9; rRNA inh HTS RFP: -1.5

Results for O=C(C[C@H]1C=C[C@@H](NC(=O)c2ccccn2)[C@H](CO)O1)NCc1cc(F)cc(F)c1 ?
rRNA inh HTS: -0.1; rRNA inh HTS OD600: 15.7; rRNA inh HTS RFP: -2.1

What do the screens show for `CN1C(=O)c2cc(NC(=O)Nc3cccc(Cl)c3)ccc2OC[C@H]2O[C@@H](CC(=O)O)CC[C@H]21`?
rRNA inh HTS: -2.2; rRNA inh HTS OD600: -6.8; rRNA inh HTS RFP: 1.9

Results for COc1ccc(C2=Nc3ccccc3NC(=O)C2N(CCc2cc(OC)cc(OC)c2)C(C)=O)cc1 (stereo unspecified) ?
rRNA inh HTS: -6.2; rRNA inh HTS OD600: -0.6; rRNA inh HTS RFP: 3.4

What do the screens show for `C[C@H](CO)N1C[C@H](C)[C@@H](CN(C)Cc2ccc(Cl)c(Cl)c2)Oc2ccc(NC(=O)NC3CCCCC3)cc2CC1=O`?
rRNA inh HTS: -3.2; rRNA inh HTS OD600: -7.5; rRNA inh HTS RFP: 1.1

Results for C[C@@H]1CN([C@H](C)CO)C(=O)c2cc(NC(=O)Nc3cccc4ccccc34)ccc2O[C@@H](C)CCCCO[C@@H]1CN(C)Cc1ccc(C(=O)O)cc1 ?
rRNA inh HTS: -2.2; rRNA inh HTS OD600: 5.3; rRNA inh HTS RFP: -0.2

What do the screens show for `C[C@H](CO)N1C[C@H](C)[C@H](CN(C)C(=O)NC2CCCCC2)OCCCC[C@H](C)Oc2ccc(NC(=O)CCCN(C)C)cc2C1=O`?
rRNA inh HTS: -1.7; rRNA inh HTS OD600: 3.1; rRNA inh HTS RFP: -4.1

What do the screens show for `CCNC(=O)[C@@H]1[C@@H](CO)[C@@H]2Cn3c(ccc(C4=CCCCC4)c3=O)[C@H]1N2CCC(F)(F)F`?
rRNA inh HTS: -1.0; rRNA inh HTS OD600: 5.8; rRNA inh HTS RFP: 1.6

Results for COc1ccc(NC(=O)N(C)C[C@H]2Oc3ccc(NC(=O)Nc4ccc(F)cc4)cc3CC(=O)N([C@H](C)CO)C[C@@H]2C)cc1 ?
rRNA inh HTS: -3.5; rRNA inh HTS OD600: 3.8; rRNA inh HTS RFP: -2.5

Results for COc1cccc(CNc2nc3cc(-c4cccc(C(=O)NCCO)c4)sc3c(=O)n2C)c1 ?
rRNA inh HTS: -0.7; rRNA inh HTS OD600: 13.9; rRNA inh HTS RFP: -0.2

Results for C[C@@H]1CN([C@@H](C)CO)C(=O)c2cc(-c3ccccc3F)cnc2O[C@@H]1CN(C)Cc1ccc(F)cc1 ?
rRNA inh HTS: -4.2; rRNA inh HTS OD600: -11.8; rRNA inh HTS RFP: 4.0

Results for C[C@@H]1CCCCO[C@H](CN(C)C(=O)Nc2ccc3c(c2)OCO3)[C@@H](C)CN([C@H](C)CO)C(=O)c2cc(NC(=O)Nc3ccc4c(c3)OCO4)ccc2O1 ?
rRNA inh HTS: 2.0; rRNA inh HTS OD600: 0.5; rRNA inh HTS RFP: -1.8

What do the screens show for `Cc1cc(NC(=O)CSc2nnc3ccc(-c4ccccc4)nn23)no1`?
rRNA inh HTS: 2.5; rRNA inh HTS OD600: 7.0; rRNA inh HTS RFP: 1.4

What do the screens show for `CC(C)NC(=O)N(C)C[C@H]1Oc2cc(Br)ccc2S(=O)(=O)N([C@H](C)CO)C[C@@H]1C`?
rRNA inh HTS: 2.1; rRNA inh HTS OD600: 7.0; rRNA inh HTS RFP: -2.3

How did CCCN(C)C[C@H]1Oc2cc(-c3cccc(OC)c3)ccc2S(=O)(=O)N([C@@H](C)CO)C[C@H]1C do in these assays?
rRNA inh HTS: -2.0; rRNA inh HTS OD600: 0.9; rRNA inh HTS RFP: 3.7

Results for C[C@@H]1CN([C@H](C)CO)C(=O)CCCn2nncc2CO[C@H]1CN(C)C(=O)Nc1ccc(N2CCCCC2)cc1 ?
rRNA inh HTS: 5.0&0.7; rRNA inh HTS OD600: 2.2&-1.0; rRNA inh HTS RFP: 5.2&4.0

How did COc1ccc(CN2C[C@@H](O)COC[C@H]3O[C@H](CC(=O)NCc4ccccc4Cl)CC[C@@H]32)cc1 do in these assays?
rRNA inh HTS: -4.2; rRNA inh HTS OD600: 1.0; rRNA inh HTS RFP: 0.1

What do the screens show for `C[C@H](CO)N1C[C@H](C)[C@@H](CN(C)CC2CCCCC2)Oc2c(NC(=O)c3cnccn3)cccc2C1=O`?
rRNA inh HTS: -3.1; rRNA inh HTS OD600: 3.9; rRNA inh HTS RFP: -1.8

Results for CCCN1[C@@H]2c3ccc(-c4ccccc4)c(=O)n3C[C@@H]2[C@@H](CO)[C@@H]1C(=O)NCC1CC1 ?
rRNA inh HTS: -2.1; rRNA inh HTS OD600: -1.5; rRNA inh HTS RFP: 2.6

Results for COc1cccc(-c2ccc3c(c2)O[C@H](CN(C)C(=O)C2CC2)[C@@H](C)CN([C@H](C)CO)S3(=O)=O)c1 ?
rRNA inh HTS: -2.0; rRNA inh HTS OD600: -8.7; rRNA inh HTS RFP: 2.0

What do the screens show for `CN1C(=O)c2cc(NC(=O)NC3CCCC3)ccc2OC[C@H]2O[C@H](CC(=O)NC3CCC3)CC[C@@H]21`?
rRNA inh HTS: 4.6; rRNA inh HTS OD600: 13.4; rRNA inh HTS RFP: -1.2

What do the screens show for `CO[C@@H]1CN(C)C(=O)c2ccc(NS(=O)(=O)CC(F)(F)F)cc2OC[C@@H](C)N(Cc2nccs2)C[C@H]1C`?
rRNA inh HTS: 0.6; rRNA inh HTS OD600: 1.0; rRNA inh HTS RFP: -1.3

What do the screens show for `O=C(c1ccc(F)cc1)N1CC(=O)N2[C@@H](CO)[C@@H](c3ccc(C#CC4CCCCC4)cc3)[C@@H]2C1`?
rRNA inh HTS: -10.4; rRNA inh HTS OD600: -34.1; rRNA inh HTS RFP: 31.0

Results for C[C@H](CO)N1C[C@H](C)[C@@H](CN(C)S(C)(=O)=O)Oc2ccc(NS(=O)(=O)c3ccc(F)cc3)cc2C1=O ?
rRNA inh HTS: 0.5; rRNA inh HTS OD600: 8.7; rRNA inh HTS RFP: -0.6

Results for O=C(C[C@@H]1CC[C@@H](NS(=O)(=O)c2cccc(F)c2)[C@H](CO)O1)NCc1ccc2c(c1)OCO2 ?
rRNA inh HTS: -2.0; rRNA inh HTS OD600: 1.2; rRNA inh HTS RFP: 0.2

How did COc1ccc(C(C)=O)cc1Cn1c(C)c(C(=O)NCc2ccc3c(c2)OCO3)sc1=O do in these assays?
rRNA inh HTS: -11.1; rRNA inh HTS OD600: 3.9; rRNA inh HTS RFP: -10.7

Results for COc1cccc(NC(=O)C[C@H]2CC[C@@H]3[C@@H](COc4ccc(NC(=O)C5CC5)cc4C(=O)N3C)O2)c1 ?
rRNA inh HTS: -2.1; rRNA inh HTS OD600: -8.2; rRNA inh HTS RFP: 1.5

How did Cc1ccc(-c2ccc3c(c2)O[C@H](CN(C)C(=O)CC2CC2)[C@H](C)CN([C@@H](C)CO)S3(=O)=O)cc1 do in these assays?
rRNA inh HTS: -0.2&-14.1; rRNA inh HTS OD600: -2.2&-53.1; rRNA inh HTS RFP: -0.9&21.8

What do the screens show for `CCOC(=O)C1=CCN(S(=O)(=O)c2ccc(F)cc2)C1c1cccc(Cl)c1` (stereo unspecified)?
rRNA inh HTS: -10.1; rRNA inh HTS OD600: -25.4; rRNA inh HTS RFP: -4.3

How did O=C(C[C@H]1CC[C@@H]2[C@H](COC[C@@H](O)CN2C(=O)Nc2ccc(C(F)(F)F)cc2)O1)NCC1CCCCC1 do in these assays?
rRNA inh HTS: -54.3; rRNA inh HTS OD600: -78.3; rRNA inh HTS RFP: -19.1

What do the screens show for `C[C@@H]1CN([C@H](C)CO)C(=O)c2cc(NC(=O)Cn3cnnn3)ccc2O[C@H]1CN(C)Cc1ccncc1`?
rRNA inh HTS: 2.0; rRNA inh HTS OD600: 5.4; rRNA inh HTS RFP: 1.3

What do the screens show for `COc1ccc(C(C#N)=C2C=C(Cl)C(=NO)C=C2Cl)cc1`?
rRNA inh HTS: -18.6*; rRNA inh HTS OD600: -0.1*; rRNA inh HTS RFP: -2.6*

What do the screens show for `CC(C)CC#Cc1ccc2c(c1)O[C@H](CN(C)C(=O)Nc1ccccc1)[C@@H](C)CN([C@@H](C)CO)S2(=O)=O`?
rRNA inh HTS: -1.2; rRNA inh HTS OD600: -3.6; rRNA inh HTS RFP: -2.6

How did COc1ccc2c3c(n(C)c2c1)[C@H](CO)N(C(=O)Cc1ccccc1)CC31CCN(C(C)=O)CC1 do in these assays?
rRNA inh HTS: -0.7; rRNA inh HTS OD600: 2.4; rRNA inh HTS RFP: -1.0

How did CN1c2ccc(C#Cc3cccnc3)cc2[C@@H]2[C@@H](CCN2C(=O)c2cccc(F)c2)[C@@H]1CO do in these assays?
rRNA inh HTS: -12.4; rRNA inh HTS OD600: -1.0; rRNA inh HTS RFP: -5.0

Results for OC[C@@H]1CN(Cc2cccs2)C[C@H](n2cnc3c(N4CCCC4)ncnc32)O1 ?
rRNA inh HTS: -1.9; rRNA inh HTS OD600: -4.7; rRNA inh HTS RFP: 4.1

Results for COc1ccccc1-c1ccc([C@H]2[C@@H](CO)N3CCCCN(C(=O)CN4CCOCC4)C[C@H]23)cc1 ?
rRNA inh HTS: 2.4; rRNA inh HTS OD600: 3.4; rRNA inh HTS RFP: 0.1

Results for COc1ccc2c3c([nH]c2c1)[C@H](CO)N(C(=O)C1CCCC1)CC31CCN(C(=O)c2ccncc2)CC1 ?
rRNA inh HTS: -1.3; rRNA inh HTS OD600: 5.5; rRNA inh HTS RFP: 1.2

What do the screens show for `C[C@@H]1CN([C@H](C)CO)C(=O)c2cc(Br)cnc2O[C@H]1CN(C)C(=O)c1ccccc1`?
rRNA inh HTS: 0.5&2.3; rRNA inh HTS OD600: 8.8&3.1; rRNA inh HTS RFP: -4.0&-0.4

Results for OC[C@@H]1[C@@H](c2ccc(-c3ccccc3F)cc2)[C@@H]2CN(Cc3cncnc3)CCCCN12 ?
rRNA inh HTS: 3.4; rRNA inh HTS OD600: 7.8; rRNA inh HTS RFP: 1.2

What do the screens show for `CC=Cc1ccc2n(c1=O)C[C@@H]1[C@@H](CO)[C@H](C(=O)NCc3ccc(F)cc3)[C@H]2N1C` (mixture of isomers)?
rRNA inh HTS: 1.0; rRNA inh HTS OD600: -1.3; rRNA inh HTS RFP: -3.1

What do the screens show for `COc1ccc(-c2ccc3c(c2)[C@@H]2[C@@H](CCN2S(=O)(=O)C2=NC(C)C=N2)[C@H](CO)N3C)cc1` (stereo partly specified)?
rRNA inh HTS: 2.5; rRNA inh HTS OD600: -8.5; rRNA inh HTS RFP: 1.9

Results for CC(C)[C@H](NS(=O)(=O)c1ccc(F)cc1F)C(=O)N1CCC[C@H]1C(=O)NCc1ccccc1 ?
rRNA inh HTS: -6.9; rRNA inh HTS OD600: -8.1; rRNA inh HTS RFP: -1.0

How did CN(C)CC#Cc1ccc([C@H]2[C@H](CO)N3C(=O)CN(C(=O)Cc4cccnc4)C[C@@H]23)cc1 do in these assays?
rRNA inh HTS: 11.2; rRNA inh HTS OD600: 11.2; rRNA inh HTS RFP: -0.6

5 neighbouring entries already listed, for reference:
How did OC[C@H]1[C@@H](c2ccc(-c3ccncc3)cc2)[C@@H]2CN(Cc3ccccn3)CCCCN12 do in these assays?
rRNA inh HTS: 4.9; rRNA inh HTS OD600: 3.7; rRNA inh HTS RFP: -1.6

Results for CCCC#Cc1ccc2c(c1)[C@@H]1[C@@H](CCN1S(=O)(=O)c1cn(C)cn1)[C@@H](CO)N2 ?
rRNA inh HTS: -4.6; rRNA inh HTS OD600: -4.9; rRNA inh HTS RFP: 3.3

Results for CC(=O)N1C[C@H]2CON(C)[C@H]2C[C@H]1c1ccccc1-c1ccccc1 ?
rRNA inh HTS: 29.3; rRNA inh HTS OD600: 21.1; rRNA inh HTS RFP: 0.9

How did CO[C@H]1CN(C)C(=O)c2cc(NC(=O)Nc3cc(Cl)cc(Cl)c3)ccc2OC[C@H](C)NC[C@H]1C do in these assays?
rRNA inh HTS: -8.8&-58.6; rRNA inh HTS OD600: -29.1&-83.0; rRNA inh HTS RFP: 19.0&-14.8

Results for CCCCN1C(=O)C(CC(=O)NCCCN(C)C)CC(C(=O)N2CCOCC2)=C1C (stereo unspecified) ?
rRNA inh HTS: 2.3; rRNA inh HTS OD600: 6.2; rRNA inh HTS RFP: -1.3

Bioassay records deposited in PubChem by Broad Institute.
